Screening results: PubChem BioAssay, several laboratories
eIF4H FP inh: inhibitors of RNA binding by human eIF4H. Q15056. eIF4H fluorescence polarization binding assay. inhibition, % at 35 µM. 290,000 compounds, 0.94% hits. AID 2012;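 active = 50% or more with normal probe brightness, or confirmed in later tests; inconclusive = above 50% with abnormal brightness, or retests that disagree; inactive = below 50% or failed in later tests; about a fifth of its hits are not listed in these tables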;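 also: calls also rest on retests at 20 µM and on dose response follow-up; 0% = protein and probe with vehicle and 100% = probe without protein; strong numbers were not always called active; many hits fall short of the cut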
UUG fidelity: modulators of start codon recognition fidelity in yeast; S. cerevisiae UUG-firefly luciferase reporter, luminescence/redox ratio; activity score, % at 18.7 µM; 350,000 compounds, 0.13% hits; AID 602363;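 active = replicate mean at a twofold rise or more, about +100% in these data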;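 also: firefly luciferase made from a UUG start codon reports start codon fidelity; reporter light over untreated wells divided by growth signal over untreated wells; some hits fall short of that in this replicate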
CSC inhib: blocks cancer stem cells; cancer stem cell-like cells viability, luminescence; inhibition, % at 7.5 µM; 300,000 compounds, 1.1% hits;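 active = mean at 75% or more and at least half the replicates too; inconclusive = mean and replicates disagree; tested in HMLE shEcad cells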;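 also: 0% = median of negative and 100% = median of positive control wells; the first replicate is given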
Rce1 inh: yeast Ras-converting enzyme inhibition; Q03530; yeast membranes, quenched prenylated peptide cleavage fluorescence; calls only; 290,000 compounds, 0.27% hits; AID 2563;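 active = fall in fluorescence gain of 50% or more versus controls, with final raw signal at or below 3038400; inconclusive = same 50% fall but final raw signal above 3038400; inactive = fall in fluorescence gain under 50%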;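 also: plate controls were neutral control wells for no effect and wells lacking membranes for full effect; tested at 10 µM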
Target sequence (Q03530 whole entry, looked up): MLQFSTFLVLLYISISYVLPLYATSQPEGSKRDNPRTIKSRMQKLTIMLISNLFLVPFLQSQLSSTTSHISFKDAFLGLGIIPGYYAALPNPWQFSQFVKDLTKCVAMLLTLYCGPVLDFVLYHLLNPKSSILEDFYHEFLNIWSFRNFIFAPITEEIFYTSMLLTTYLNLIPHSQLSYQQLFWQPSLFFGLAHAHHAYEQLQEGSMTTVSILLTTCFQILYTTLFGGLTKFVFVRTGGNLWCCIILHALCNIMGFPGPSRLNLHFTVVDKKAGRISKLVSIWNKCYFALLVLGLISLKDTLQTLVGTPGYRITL
Env fusion inh: inhibitors of HIV Env-mediated cell fusion; HeLa-JRFL Env/CEM21 cell fusion, luciferase; inhibition, % at 12.3 µM; 360,000 compounds, 1.1% hits;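 active = mean replicate inhibition score of at least 50 and every replicate individually at or above 50; inconclusive = only one of the two criteria met; inactive = mean below 50 and not all replicates reaching 50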;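 also: 0% = plate neutral controls and 100% = maraviroc near 300 nM; one replicate is shown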
PABP polyA inh: blocks human PABP binding to poly(A) RNA; P11940; fluorescence polarization; inhibition, % at 35 µM; 290,000 compounds, 1% hits;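 active = 50% or more with normal probe brightness, or confirmed in later tests; inconclusive = above 50% with abnormal brightness, or retests that disagree; inactive = below 50% or failed in later tests; about a fifth of its hits are not listed in these tables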;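 also: calls also rest on retests at 20 µM and on dose response follow-up; controls were probe without protein and protein plus probe with vehicle; some compounds called inactive have numbers as strong as hits; many hits fall short of the cut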
Target sequence (P11940 whole entry, looked up): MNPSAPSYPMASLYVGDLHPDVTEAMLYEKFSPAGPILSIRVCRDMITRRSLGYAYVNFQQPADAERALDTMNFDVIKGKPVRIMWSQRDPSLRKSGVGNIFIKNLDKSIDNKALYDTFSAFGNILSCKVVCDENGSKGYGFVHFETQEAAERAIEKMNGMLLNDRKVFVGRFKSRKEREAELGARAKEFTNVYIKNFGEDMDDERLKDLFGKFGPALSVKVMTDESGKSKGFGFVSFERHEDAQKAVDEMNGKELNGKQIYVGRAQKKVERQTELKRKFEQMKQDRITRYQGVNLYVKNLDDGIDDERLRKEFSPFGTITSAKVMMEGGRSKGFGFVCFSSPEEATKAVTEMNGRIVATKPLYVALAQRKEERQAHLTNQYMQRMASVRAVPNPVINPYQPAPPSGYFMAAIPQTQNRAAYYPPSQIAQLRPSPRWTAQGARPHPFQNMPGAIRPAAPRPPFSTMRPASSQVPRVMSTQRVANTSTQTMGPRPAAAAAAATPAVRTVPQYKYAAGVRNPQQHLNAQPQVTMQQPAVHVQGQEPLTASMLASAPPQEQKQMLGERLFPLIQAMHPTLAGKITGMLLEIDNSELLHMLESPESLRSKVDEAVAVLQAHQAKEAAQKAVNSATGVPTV
MT1-MMP act inh: MT1-MMP (human) activation inhibition | P50281 | HT1080 RFP-PRO-GFP cells, GFP/RFP ratio fluorescence, overnight; percent of plate control window, DMSO zero | GFP/RFP ratio change, % at 20 µM | 360,000 compounds, 0.061% hits;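 active = GFP/RFP ratio change of at least 30% with cell ATP level not reduced by more than half and red fluorescence within 50% of control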; also: strong numbers were not always called active
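Test system: HT1080 cells expressing an RFP-PRO-GFP fluorescent reporter construct / Compound dosing: single-point 20 µM compound, 1% DMSO / Schedule: cells overnight before dosing, compound overnight, 37 °C, 5% CO2 / Evaluation: GFP/RFP fluorescence ratio / Control set: DMSO and RFP-L50D-GFP cell wells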
MT1-MMP act inh RFP: recorded beside MT1-MMP act inh, whose call it bears; RFP signal change, %; measured here: RFP expression control read;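 0 = vehicle wells; hits needed this value within 50% of zero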
* hit, by the source's call; i = inactive; ? = inconclusive; . = no result given; & = joins results of further samples.

Start of the listing, in advance, 5 compounds:
SMILES	eIF4H FP inh	UUG fidelity	CSC inhib	Rce1 inh	Env fusion inh	PABP polyA inh	MT1-MMP act inh	MT1-MMP act inh RFP
COc1ccc(OCCCN(C)Cc2ccccc2)cc1	1	-25	.	i	-11	11	0	2
COc1c(OC)c2[nH]c(=O)cc3c4ccccc4n(c1=O)c23	.	6	-7	i	.	.	-10	7
COc1cccc(NC(=O)COC(=O)C2CC(=O)N(c3ccc(C)cc3)C2)c1 (stereo unspecified)	.	-11	.	.	4	.	1	0
Cc1nn2c(N)c(-c3ccccc3)cnc2c1-c1ccc(Cl)cc1	-1	2	68	i	-32	-3	5	1
Cn1c(-c2ccccc2)c(C(=O)CC#N)c2ccccc21	18	.	-11	i	11	8	-6	-2

Main list, repeating the preview:
SMILES	eIF4H FP inh	UUG fidelity	CSC inhib	Rce1 inh	Env fusion inh	PABP polyA inh	MT1-MMP act inh	MT1-MMP act inh RFP
COc1ccc(OCCCN(C)Cc2ccccc2)cc1	1	-25	.	i	-11	11	0	2
COc1c(OC)c2[nH]c(=O)cc3c4ccccc4n(c1=O)c23	.	6	-7	i	.	.	-10	7
COc1cccc(NC(=O)COC(=O)C2CC(=O)N(c3ccc(C)cc3)C2)c1 (stereo unspecified)	.	-11	.	.	4	.	1	0
Cc1nn2c(N)c(-c3ccccc3)cnc2c1-c1ccc(Cl)cc1	-1	2	68	i	-32	-3	5	1
Cn1c(-c2ccccc2)c(C(=O)CC#N)c2ccccc21	18	.	-11	i	11	8	-6	-2
CCN1C(=O)CC(C(=O)Nc2ccc(F)cc2)SC1=Nc1cccc(OC)c1 (stereo unspecified)	-4	-10	-3	i	.	-4	3	-6
COC(=O)c1cc(S(=O)(=O)NCC2CCN(Cc3ccc(F)cc3)CC2)c[nH]1	1	-14	-13	i	-4	-2	3	5
CCOc1ccc(NS(=O)(=O)c2ccc3[nH]c(=O)cc(C(=O)O)c3c2)cc1	-4	.	-2	.	-14	-1	1	6
Nc1c(-c2ccccc2)c(CSc2nc3ccccc3[nH]2)nn1-c1ccc(Cl)cc1	22	.	37	i	-9	18	-5	-14
Cc1ccc(SCc2cc(=O)n3[nH]cnc3n2)cc1	-8	-16	0	i	.	-9	4	10
CC(=O)c1cccc(NC(=O)Nc2ccc3c(c2)N(C)C(=O)CS3)c1	-13	-14	-4	.	.	8	-12	-16
COc1ccc(N(C)C(=O)C2CCN(S(=O)(=O)c3cccc4nsnc34)CC2)cc1	-10	-9	15	i	9	-6	-6	4
CN1CCN(c2cc(=O)n(C3CCCCC3)c(=O)[nH]2)CC1	6	-14	0	i	-5	20	-2	2
Cc1nc(CCNC(=O)CC2C(=O)NCCN2Cc2ccccc2)nc2c1CCC2 (stereo unspecified)	11	-7	.	i	.	1	-2	4
O=C(Nc1cccc(C(F)(F)F)c1)c1cccnn1	-7	-13	-4	i	-10	4	-2	0
Cc1ccc(-n2[nH]c(C)c(C=NCc3ccncc3)c2=O)cc1	-8	-1	38	i	-17	16	-2	2
CC(C)CCNC(=O)C(=O)NCc1ccccc1	2	.	-5	i	6	4	-1	-5
CCOC(=O)C1CCN(C(=O)C2CCCCC2)CC1	-11	-13	0	i	-9	-16	1	2
CCc1ccc(/C=C2/Sc3ccccc3N(CC(=O)NCC3CCCO3)C2=O)cc1 (stereo unspecified)	-1	-2	11	i	7	4	-1	-6
COc1ccc2c(C)nc(Nc3nc(-c4ccccc4)cc(=O)[nH]3)nc2c1	-24	-15	107*	i	-29	-55	-1	-13
O=C(CNC(=O)c1ccco1)NCC(=O)OCc1ccccc1Br	2	.	-3	i	.	-9	0	0
COc1ccc(CCN2C(=O)C(Oc3ccccc3C)C2c2ccc3c(c2)OCO3)cc1OC (stereo unspecified)	-10	-2	.	i	.	-8	-7	-9
Cc1cccc(C(=O)OCC(=O)NN2C(=O)NC3(CCC(C)CC3)C2=O)c1O (stereo unspecified)	.	-13	-1	.	-10	.	-1	-3
COc1ccc(-c2noc(-c3cccs3)n2)cc1OC	6	.	3	i	-70	-6	-1	-4
Cc1c(Cl)ccc2c(C(O)CBr)cc(-c3ccccc3)nc12 (stereo unspecified)	.	-15	.	.	16	.	2	2
CCOc1cc2c(cc1OCC)C(c1ccc(O)c(OC)c1)NCC2 (stereo unspecified)	.	-11	.	.	-5	.	-4	4
COc1ccc(Nc2nc(-c3sc(C)nc3C)cs2)c(OC)c1	9	-28	57	i	12	3	-2	-14
COc1ccc(N2CCC(CNC(=O)Nc3ccccc3)C2)cc1 (stereo unspecified)	-2	4	2	i	-39	-5	-4	8
CCC1Oc2ccc(C)cc2N(CC(=O)NCCN2CCCCCC2)C1=O (stereo unspecified)	-5	1	-10	i	.	2	4	2
COc1ccc(N2CCN(c3nc4ccccc4n3CC(=O)c3ccccc3)CC2)cc1	4	0	-8	i	-20	-8	-9	-9
Cc1ccc(OCC(=O)NNC(=S)NC(=O)c2cccs2)c(C)c1	17	-26	?	i	13	2	-2	5
COC(=O)/C=c1/s/c(=C(/C#N)C(=O)N2CCCCC2)n(-c2ccccc2)c1=O	4	4	-3	i	0	-8	3	5
CCC(=O)N1CCN(c2ccc(NC(=O)c3cccs3)cc2)CC1	-10	-13	-9	i	32	0	-1	0
CCN1C(=O)Cc2cc(S(=O)(=O)N3CCOCC3)ccc21	-14	4	6	i	5	2	-4	-3
CC(=O)Nc1ccc(NC(=O)CSc2nnc(NC(=O)C3CC(=O)N(c4ccccc4)C3)s2)cc1 (stereo unspecified)	-4	-16	11	i	-3	-2	-2	0
O=C(CCN1C(=O)C2C3C=CC(C3)C2C1=O)Nc1nccs1 (stereo unspecified)	-2	-11	15	i	.	2	4	3
Cn1c2c(c(=O)n(C)c1=O)C(c1ccc(Br)cc1)C(C#N)=C(N)N2 (stereo unspecified)	-9	-3	-6	i	2	6	2	2
O=C(/C=C/c1ccco1)N1CCN(S(=O)(=O)c2ccccc2)CC1	.	-4	-10	.	.	.	-4	-1
COc1ccc(NC(=O)N(Cc2cc3ccc(OC)cc3[nH]c2=O)CC2CCCO2)cc1 (stereo unspecified)	-5	.	-1	i	-27	2	-3	-5
Cc1cccc(-c2cccc(NC(=O)C3CCCN(C(=O)c4ocnc4C)C3)c2)c1 (stereo unspecified)	1	9	7	i	-11	-1	-1	0
N#C/C(C(=O)Oc1ccccc1)=C1/Nc2ccccc2-c2ccccc21	-8	-35	.	i	.	9	8	-6
CCOc1ccccc1NC(=O)C(Sc1ccccc1)c1ccccc1 (stereo unspecified)	2	3	27	i	.	-3	-14	-19
Cc1ccc(/C=C2/SC(=S)N(CCCC(=O)Nc3ccc(O)cc3)C2=O)cc1	-5	.	.	i	55*	-5	-2	-6
O=C(Cc1ccccc1)Nc1ncccn1	.	-13	-5	i	-28	.	2	5
Cc1ccc2cc(CNC(C)(C)C)c(=O)[nH]c2c1	0	-23	-8	i	.	12	1	4
COCCn1c(SCC(=O)Nc2cccnc2Cl)nc2cc(Cl)ccc2c1=O	.	-12	-3	.	17	.	-7	1
O=C(NC(=S)NNS(=O)(=O)c1ccccc1)c1ccc([N+](=O)[O-])cc1	10	.	-6	i	-121	-2	3	-2
CN(C)/C=C(\C#N)C(=O)N/N=C/c1ccccc1	-8	.	-8	i	-3	5	-4	1
O=C(Nc1ccc(S(=O)(=O)Nc2ncccn2)cc1)c1ccc2ncsc2c1	26	.	-3	i	1	4	-4	-3
O=C(Nc1ccc(N2CCN(C(=O)c3ccc(Cl)cc3)CC2)cc1)c1ccc2c(c1)OCCO2	2	-5	.	i	86*	-8	11	-20
CCOC(=O)c1cnn(-c2ccccc2)c1-c1ccncc1	-6	-20	-12	i	25	4	-1	4
CCc1ccc(NC(=O)CC2C(=O)N(c3ccc(C)cc3)C(=O)N2CCc2ccncc2)cc1 (stereo unspecified)	-11	.	-5	.	8	-14	-6	-5
Cc1ccccc1-n1c(C)nnc1SCC(=O)N(C)C1CCS(=O)(=O)C1 (stereo unspecified)	-2	.	.	i	-6	-4	-2	3
O=C(CCc1ccc(O)cc1)c1c(O)cc(O)cc1O[C@@H]1O[C@H](CO)[C@@H](O)[C@H](O)[C@H]1O	10	-15	-9	i	-17	2	3	-3
CCC(=O)c1ccccc1OCCSc1nc(C)cc(=O)[nH]1	1	-13	12	i	-19	-5	11	8
Cc1cc(C)cc(OC(=O)N2CCOCC2)c1	9	-5	-1	i	.	5	-2	4
Cc1ccc(C(=O)N2CCCC(N3CCN(c4ccccc4F)CC3)C2)s1 (stereo unspecified)	-7	0	3	i	7	-10	1	0
CC(C)c1ccc(-n2cnn(-c3ncccc3[N+](=O)[O-])c2=O)cc1	2	.	1	i	-76	10	0	1
O=C(Nc1cccc(S(=O)(=O)N2CCOCC2)c1)c1cc2ccccc2o1	-2	-10	-5	i	-6	9	6	-6
O=C(O)c1cccc(S(=O)(=O)Nc2ccc(OCc3ccccc3)cc2)c1	-7	-14	-4	i	1	-4	1	3

(further entries)
SMILES	eIF4H FP inh	UUG fidelity	CSC inhib	Rce1 inh	Env fusion inh	PABP polyA inh	MT1-MMP act inh	MT1-MMP act inh RFP
Cn1c(=O)n(C)c2cc(NC(=O)c3cc4ccccc4o3)ccc21	0	6	2	i	-84	-7	21	9
C/C(=N\NC(=O)CCn1nnc2ccccc21)c1cccs1	6	-17	9	i	-16	-3	7	-1
Cn1c(CNc2ccc(Cl)cc2)nc2ccccc21	-4	-28	58	i	.	2	4	1
COc1ccc(NC(=O)c2c[nH]c(=O)n(-c3ccc(C)c(C)c3)c2=O)cc1OC	-10	-16	-17	i	-3	1	.	.
Cc1ccc(NC(=S)NCc2ccc(F)cc2)cc1	.	-30	-18	i	10	.	3	2
O=C1/C(=C/c2cccnc2)CCc2c1[nH]c1ccccc21	9	.	19	i	-92	-1	-15	-13
COc1ccc(-n2cnc3c(N)nc(N)nc32)cc1	.	-19	.	.	-20	.	-1	7
O=C(Nc1ccccc1N1CCOCC1)c1ccccc1NS(=O)(=O)c1ccc(F)c(F)c1	-2	-15	32	i	.	19	2	-13
Cc1ccccc1OCC(=O)NCC(C)(C)N1CCOCC1	.	-7	-3	i	-19	.	0	1
COc1ccc(S(=O)(=O)N2Cc3ccccc3CC2C(=O)Nc2ccc(O)cc2)cc1OC (stereo unspecified)	7	-11	0	i	-5	-8	1	1
COc1ccc(NC(=O)CSc2nc(=O)n(CCN(C)C)c3c2CCCC3)cc1	.	.	-4	i	-6	.	3	6
CC(=O)c1cccc(NC(=O)N(c2ccccc2)c2ccccc2)c1	3	-13	-7	i	-12	12	-2	0
CCCCCCCC(=O)OC(CN1CCCCC1)CN1CCCC1=O (stereo unspecified)	-1	.	-7	i	.	-4	4	3
Clc1ccc(Oc2ncnc3oc(-c4ccccc4)cc23)cc1	10	-5	-3	i	.	-16	-4	2
COc1cccc(Nc2ncnc3c2cnn3-c2cccc(C)c2)c1	2	-15	11	i	-11	-15	2	-5
CC(C)NC(=O)N(C)C[C@H]1Oc2c(NS(=O)(=O)c3ccccc3)cccc2C(=O)N([C@H](C)CO)C[C@@H]1C	.	0&2	.	.	-38	.	1	5
Cc1cccc(N(CC(=O)NCc2ccc(F)cc2)C(=O)c2ccco2)c1	-2	-8	.	i	5	4	0	0
Cc1ccc(S(=O)(=O)N2CCN(c3ccc([N+](=O)[O-])c(NCCN4CCOCC4)c3)CC2)cc1	-7	8	.	i	.	3	1	-6
Cc1ccc(-c2nn3c(C)nnc3c3ccccc23)cc1S(=O)(=O)NCCN1CCOCC1	-1	-14	-10	i	-118	-5	9	4
